gsp agonist = activates gsp, the McCune-Albright syndrome mutation; gsp mutant cells, cAMP HTRF, 30 min; control for the full effect not named in the record; Potency, µM (titrated, usually from 76.9 µM), for inactives: at the highest dose activation (cAMP increase), most hits filed as activators; hit rate 0.13% among 340,000; active = well fitted activation curve with a large enough effect; inconclusive = small, poorly fitted or top-dose-only effect, or another doubt; inactive = no such curve, though single readings can be large or run the other way; cell line not stated here;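 also: phosphodiesterase inhibitor Ro 20-1724 added with compounds to block cAMP breakdown; potency is read from the fitted curve at half-maximal effect; nearly all actives have a fitted effect of over 60% in size; about a fifth of the inactives were tested at one dose only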
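Cells stably selected in G418 were plated at 2000/well, grown 16-24 hr, then given compounds in DMSO with the PDE inhibitor […] (300 uM solution added) for 30 min at 37C; cAMP was read by HTRF.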
D2 ag = agonists of human D2 dopamine receptor (beta-arrestin); P14416; DiscoveRx PathHunter D2 beta-arrestin, luminescence, 90 min; 100% = 57 uM dopamine signal; activation, % (concentration not given with the values); hit rate 0.084% among 360,000; AID 624465; in the data active = activation above about 40%; inconclusive = about 15% to 40%; inactive = below about 15%; also: compound concentration not given in the record; the text of the record calls up to 30% inactive
Target sequence (P14416 whole entry, looked up): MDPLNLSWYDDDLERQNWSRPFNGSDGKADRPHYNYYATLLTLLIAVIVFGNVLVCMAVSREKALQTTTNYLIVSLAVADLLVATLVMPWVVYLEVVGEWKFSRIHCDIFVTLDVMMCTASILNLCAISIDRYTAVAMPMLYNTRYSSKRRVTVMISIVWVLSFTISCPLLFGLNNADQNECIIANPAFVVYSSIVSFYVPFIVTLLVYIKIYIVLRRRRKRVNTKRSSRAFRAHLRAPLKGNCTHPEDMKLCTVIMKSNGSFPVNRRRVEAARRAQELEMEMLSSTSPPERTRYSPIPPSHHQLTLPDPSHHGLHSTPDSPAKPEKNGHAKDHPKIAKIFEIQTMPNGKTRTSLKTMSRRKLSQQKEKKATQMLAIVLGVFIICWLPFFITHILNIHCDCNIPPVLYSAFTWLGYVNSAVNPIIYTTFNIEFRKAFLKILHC
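Agonist mode: compounds alone added to overnight-plated D2 PathHunter cells for 90 min at 37 C, with 57 uM final dopamine (EC100) defining full response. Beta-arrestin recruitment detected by chemiluminescent reagent, read after 1 h at ambient temperature.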
ClpP mod = qHTS Assay for Activators of ClpP; Potency, µM (series often up to 57.5 µM), for inactives: top-dose activity change, negative = active; AID 651965, 2013; purified B. subtilis ClpP, FRET peptide cleavage, 20 min; hit rate 1.9% among 340,000; active = well fitted falling curve with a large enough effect; inconclusive = small, poorly fitted or top-dose-only effect; inactive = no such curve, though single readings can be large or run the other way; also: potency is read from the fitted curve at half-maximal effect; the source files actives as falling curves though it sought activators and does not explain the sign; nearly all actives have a fitted effect of over 65% in size; many hits overshoot -100%
Target sequence (P80244 whole entry, looked up): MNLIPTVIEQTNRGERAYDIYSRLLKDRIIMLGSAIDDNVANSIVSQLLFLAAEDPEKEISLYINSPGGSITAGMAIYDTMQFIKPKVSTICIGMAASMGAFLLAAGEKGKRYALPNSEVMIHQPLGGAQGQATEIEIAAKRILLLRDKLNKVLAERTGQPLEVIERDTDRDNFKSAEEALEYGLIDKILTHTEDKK
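Purified B. subtilis ClpP, 10 microg/mL final in Tris/HCl pH8 with KCl, BSA, glycerol and Tween-20, cleaved an Abz/nitrotyrosine-quenched decapeptide. Fluorescence (ex 320, em 430) was read at 0 and 20 min at room temperature. Delta was normalized to 5.8 microM ADEP and DMSO/no-enzyme controls.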
Sfp PPTase inh = Sfp phosphopantetheinyl transferase inhibition; Q9F4F7; Biochemical Sfp PPTase activity, qHTS; Potency, µM, for inactives: max response, negative = inhibition, most hits filed as inhibitors; hit rate 3.5% among 310,000; active = well fitted inhibition curve with a large enough effect; inconclusive = small, poorly fitted or top-dose-only effect, or another doubt; inactive = no such curve, though single readings can be large or run the other way;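 also: the enzyme is Sfp with the accession as filed and its product quenches rhodamine fluorescence; potency is read from the fitted curve at half-maximal effect; 0% = enzyme reaction without inhibitor and -100% = no enzyme wells; top concentration of the series not given in the record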
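Fluorescence-quenching assay with 15 nM Sfp, 5 uM rhodamine-CoA and 12.5 uM BHQ-2-labelled ybbR peptide in pH 7.6 Hepes/MgCl2 buffer. Enzyme was pre-incubated with compound for 15 min at room temperature. Rate was taken from the 30-min fluorescence change (525/598 nm).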
PINK1 expr mod = modulators of PINK1 expression; Potency, µM (titrated, usually from 76.6 µM), for the others: at the highest dose activation (PINK1 increase), hits mostly activators; PINK1 immunofluorescence, high-content cytometry, 24 h; hit rate 0.2% among 410,000; active = well fitted activation curve with a large enough effect; inconclusive = small, poorly fitted or top-dose-only effect; inactive = flat fitted curve, though single readings scatter; cell line not stated here;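 also: potency is read from the fitted curve at half-maximal effect; % of control where 0% means no effect; nearly all actives have a fitted effect of over 65% in size; a mitochondrial uncoupler was the plate control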
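Stable cell line treated 24 h with compounds at 5 concentrations (CCCP controls), then fixed and immunostained for PINK1 plus nuclear and cell stains; PINK1 immunofluorescence quantified by laser-scanning microplate cytometry.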
gsp antag = gsp mutant antagonism. gsp-mutant cells, cAMP HTRF, 30 min; control for the full effect not named in the record. Potency, µM (doses to about 76.9 µM), without a hit: at the highest dose activity change, negative = inhibition, most hits filed as inhibitors. hit rate 0.4% among 340,000. AID 624288; active = falling curve of any shape with a large fitted effect; inconclusive = falling curve, mostly with a smaller effect; inactive = flat or rising curve; cell line not stated here;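 also: intracellular cAMP measured with PDE inhibitor Ro 20-1724 present during compound exposure; potency is read from the fitted curve at half-maximal effect; % is scaled to controls: 0 for no effect and ±100 for the full control effect; nearly all actives have a fitted effect of over 65% in size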
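HTRF cAMP read-out (cAMP-d2 plus anti-cAMP antibody-K in lysis buffer, 30 min RT). Before lysis, cells are exposed to compounds with […] for 30 min at 37C in DPBS containing Ca/Mg, BSA and Tween 20.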
Menin-MLL FL inh = inhibitors of human menin-MLL interaction, wild-type MLL peptide; FP activity change, % at 61.4 µM; Fluorescence polarization, fluorescein-MLL peptide displacement from menin; 290,000 tested, under 10 active; inconclusive = falling polarisation curve, or a change in total fluorescence; inactive = total fluorescence flat and polarisation flat or rising; no compound was filed as active; the % refers to the polarisation; negative = inhibition;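 also: % of control where 0% means no effect; inhibitors lower the polarisation; unlabelled MLL peptide was the positive control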
* = called active by the depositor; u = inconclusive; x = no result given; & = joins results of further samples; [ ] = remark or other dose.

Structure	gsp agonist	D2 ag	ClpP mod	Sfp PPTase inh	PINK1 expr mod	gsp antag	Menin-MLL FL inh
CCn1cc(C(=O)NCCc2ccccc2)c(=O)c2cc(F)c(N3CCN(C)CC3)cc21	31%	2.5	u	-5%	-0.8%	6%	8.3
Cc1ccc(NC(=O)C(C)OC(=O)c2n[nH]c3ccccc23)cc1 (centres undefined)	11%[15.4 µM]	2.5	u	x	2.3%	-4%	x
Cc1ccc([N+](=O)[O-])cc1NC1CC(O)C(CO)O1 (centres undefined)	20%[15.4 µM]	-0.2	-3.3%	9%	-1.0%	4%	0.8
O=C(CN1CCN(c2ccc([N+](=O)[O-])cc2)CC1)Nc1nccs1	-13%[15.4 µM]	-2.2	-0.3%	-8%	0.3%	1%	1.3
CCC(CC)CC1CN2CCc3cc(OC)c(OC)cc3C2CC1(O)CC (centres undefined)	-25%	-1.4	3.8%	x	0.6%	x	x
COc1ccc(NC(=S)N/N=C/c2ccc(F)c(F)c2)cc1	0%	-1.0	0.7%	9%	5.5%	3%	9.8
CC(NC(=O)c1ccc(CS(C)(=O)=O)cc1)C1CC2CCC1C2 (centres undefined)	12%[15.4 µM]	-0.8	x	12%	-0.7%	-23%	-1.6
CN(C)CC1CCCCC1OC(=O)/C=C/c1ccccc1 (centres undefined)	3%[15.4 µM]	0.9	x	24%	-2.7%	11%	-0.1
CC(C)(C)N(Cc1ccccc1)C(=O)COC(=O)c1ccc([N+](=O)[O-])o1	u	u	-0.3%	x	0.7%	10%	x
COc1ccccc1NC(=O)COc1ccc(/C=N/n2cnnc2)cc1OC	9%	-1.3	-2.2%	7%	x	0%	-4.0
CC(=O)N1c2ccc(S(=O)(=O)NCCC(=O)N3CCCC(C)C3)cc2CC1C (centres undefined)	u	-6.9	-0.8%	23%	-1.5%	3%	-0.7
O=C(c1ccncc1)N1CCN(S(=O)(=O)c2cccc([N+](=O)[O-])c2)CC1	-19%	3.5	-2.1%	x	4.8%	-5%	x
CCN(CC)C(=O)N(CC)Cc1ccccc1	22%	-2.7	-0.9%	14%	-0.6%	-8%	-3.8
CCCOc1ccc(NC(=O)C2CC(=O)N(C(C)C)C2)cc1 (centres undefined)	-31%[inhibitor]	-1.5	4.2%	10%	-1.5%	10%	1.8
COc1cccc(-c2cccc(NC(=O)C3CCN(Cc4nccs4)CC3)c2)c1	0%	-5.9	0.3%	16%	-1.0%	-10%	x
O=C(O)C(Cc1cn[nH]n1)=NO	-47%[inhibitor]	-0.8	-1.2%	79µM*	0.5%	2%	-2.6
CCOc1ccc(N(CC(=O)NCc2ccccc2)S(C)(=O)=O)cc1	-3%	-0.5	-1.1%	11%	-3.5%	-9%	-1.8
O=C(CSc1nnc(-c2cccnc2)o1)Nc1ccccc1F	-9%[15.4 µM]	-3.8	x	x	3.3%	1%	x
O=C(COC(=O)C1CCN(S(=O)(=O)c2ccc3c(c2)OCCO3)CC1)Nc1ccc(C(F)(F)F)cc1	u	1.7	-2.6%	8%	7.9%	0%	4.8
CCn1c(SCc2ccccc2)nnc1C1CCCCC1	-1%	-0.4	0.7%	8%	-1.8%	6%	0.7
Cc1cc2[nH]c(=O)c(=O)[nH]c2cc1S(=O)(=O)N(C)C1CCCCC1	18%	-5.4	-11%	9%	0.6%	-5%	6.0
O=C(Nc1ccccc1N1CCCCC1)c1cccc(Cl)c1	4%	4.3	x	-6%	25%	-3%	1.3
COc1ccccc1NC(=O)CSc1nnc(-c2ccco2)o1	-37%[inhibitor]	-1.8	-0.2%	15%	-2.2%	16%	0.6
O=C1NCCN1C(=O)N(c1ccccc1)c1ccccc1	-29%	-1.8	-0.4%	17%	-0.7%[38.3 µM]	11%	1.2
Cn1c(=O)c2cc(S(=O)(=O)NC(C(=O)Nc3cccc(F)c3)c3ccccc3)ccc2n(C)c1=O (centres undefined)	6%	7.9	-2.1%	9%	0.8%	-6%	2.7
O=S(=O)(Nc1ccc(O)c(CN2CCCCC2)c1)c1ccccc1	-13%	-1.0	-1.5%	-7%	-0.8%	5%	-0.3
Cn1cc(S(=O)(=O)N2CCCC2)cc1C(=O)NCc1ccccc1Cl	-58%[inhibitor]	9.3	-5.2%	22%	-0.5%	-5%	3.1
O=C(Nc1ccccc1N1CCOCC1)C1=NN(c2c(F)c(F)cc(F)c2F)C(=O)CC1	-4%	6.9	-0.7%	x	-1.4%	-9%	x
COc1ccc(-c2nn(-c3ccccc3C)cc2CNCc2cccnc2)cc1F	-1%[15.4 µM]	-2.1	x	0%	0.9%	-4%	0.3
CCc1ccc(NC(=O)CSc2nc3n[nH]c(C)c3c(=N)n2-c2cccc(OC)c2)cc1	19%	-0.2	-2.2%	-11%	6.6%[38.3 µM]	2%	3.5
O=C1C=CC(=O)N1c1ccc(N2CCCCC2)cc1	9%	-6.1	-1.7%	7.1µM*	-6.6%	-3%	-2.0
CCNC(=S)Nc1ccc(Oc2ccccc2)cc1	1%	-1.3	-0.6%	x	-1.2%	-14%	x
COc1ccccc1N(C)S(=O)(=O)c1ccc(C)c(C(=O)N2CCCCCC2)c1	13%	1.0	0.8%	x	-0.8%	-5%	x
Cc1ccc2nc(-c3cccnc3)cc(C(=O)Nc3ccccc3[N+](=O)[O-])c2c1	-5%	-3.9	1.0%	-15%	1.2%	-2%	6.3
Nc1nnnn1/N=C/c1cc(Br)ccc1O	20%[15.4 µM]	1.2	x	x	-0.4%	-5%	x
O=C(COC(=O)CCN=C1NS(=O)(=O)c2ccccc21)NNC(=O)c1ccccc1	-4%[15.4 µM]	1.2	-0.9%	x	-1.4%	21%	x
CCCN1CCC(NC(=O)c2cccc(Oc3ccccc3)c2)CC1	-3%[15.4 µM]	-4.6	-2.0%	0%	0.1%	12%	x
CCN1C(=O)[C@H]2[C@@H](c3ccc(OC)cc3)N3C(=O)CN(Cc4ccccc4)C(=O)[C@@]3(C)[C@H]2C1=O	7%	-0.7	-0.3%	10%	-0.5%	11%	-1.6
Cc1cc(C(=O)N2CCCC(N3CCN(c4ccc(F)cc4)CC3)C2)no1 (centres undefined)	-11%	-3.2	-1.3%	7%	0.5%	2%	x
CCN1CCN(CCNC(=O)c2cn(Cc3ccccc3F)nn2)CC1	6%	-3.0	0.8%	26%	0.0%	-12%	-3.2
Cc1ccc(NC(=O)CCNS(=O)(=O)c2ccc3c(c2)CCC(=O)N3)cc1	7%	-3.7	0.7%	14%	-0.7%	5%	0.5
CC(C)CN1C(=O)NC2(CCCc3ccccc32)C1=O (centres undefined)	26%	0.1	-0.8%	3%	-0.1%	12%	x
CCOc1ccc(NC(=S)N2CCC(C(=O)c3ccc(F)cc3)CC2)cc1	-35%[inhibitor]	1.7	x	x	1.9%	-7%	x
CCN(CC)S(=O)(=O)c1cccc(C(=O)N/N=C/c2ccccn2)c1	34%[15.4 µM]	-0.5	-2.3%	u	0.3%	-35%	0.9
Cc1ccc(C(C)C)c(OCC(=O)Nc2ccc(N3CCOCC3)cc2N2CCOCC2)c1	2%	-3.1	0.4%	x	3.3%	1%	x
CCOc1cc2nc3c4ccccc4n(C)c3nc2cc1OCC	-91%[inhibitor]	-2.8	-6.4%	-8%	4.5%	-6%	4.3
COC(c1ccccc1)c1nnc(CCC(=O)N(C)CCCC2CCCC2)o1 (centres undefined)	0%	-1.7	0.3%	10%	0.5%	-2%	-4.3
N=C(N)SCc1cn(-c2ccccc2)nc1-c1ccc(Br)cc1	0%[15.4 µM]	-5.6	x	50µM*	-0.2%	x	-1.3
CC(C)Cc1csc(NC(=O)c2ccc(F)cc2)c1C(=O)O	5%	2.6	-3.2%	-3%	17%	u	0.6
CC(=O)c1ccc(N2CCN(C(=O)c3ccc(S(=O)(=O)NCc4ccco4)cc3)CC2)cc1	-33%	2.9	x	x	0.6%	-18%	x
COc1ccc(S(=O)(=O)N2CCOC2CNC(=O)C(=O)NCc2ccncc2)cc1C (centres undefined)	7%[15.4 µM]	-1.0	1.3%	x	3.0%	-2%	x
Cc1cccc(S(=O)(=O)c2c(N)n(/N=C/c3ccccc3)c3nc4ccccc4nc23)c1	-4%	0.3	u	8%	-1.2%	14%	3.7
CCOc1ccc(NC(=O)Cc2ccc(S(=O)(=O)N3CCOCC3)s2)cc1OCC	-1%	-1.1	-1.7%	4%	-1.1%	-6%	x
CCN(CC)CC(C)CNC(=O)CN1C(=O)CSc2ccc(S(=O)(=O)N3CCOCC3)cc21 (centres undefined)	u	0.5	0.4%&0.6%	4%	1.7%&-0.4%	8%	2.6
COC(=O)c1ccc(CN(c2ccccn2)S(=O)(=O)c2ccccc2)cc1	-6%	-1.3	u	6%	1.1%	-21%	-1.5
CCC(C)NC(=O)CNC(=S)N(Cc1ccccc1F)C1CCCCC1 (centres undefined)	-10%[15.4 µM]	-0.5	x	21%	1.1%	-12%	2.4
CCn1ncc(-c2csc(N)n2)c1C	17%[15.4 µM]	-2.4	x	7%	0.6%	3%	-1.7
CCOc1ccc(-n2cccc2C=O)cc1	-9%	-3.7	3.0%	u	-1.4%	6%	0.1
CCC(C)N(C(=O)CSc1nncn1C)C1CCS(=O)(=O)C1 (centres undefined)	u	0.9	x	x	1.5%	11%	x
COc1ccc(S(=O)(=O)N2CCC(C(=O)NCC3CCCO3)CC2)cc1C (centres undefined)	-65%[inhibitor]	1.3	0.2%	5%	-2.8%[38.3 µM]	0%	-1.7

Going on with the list.
Structure	gsp agonist	D2 ag	ClpP mod	Sfp PPTase inh	PINK1 expr mod	gsp antag	Menin-MLL FL inh
CC(=O)c1cccc(NS(=O)(=O)c2ccc(-c3cc(C)no3)s2)c1	-5%	4.2	-0.2%	2%	0.7%	u	-1.9
CCOC(=O)N1N=C(c2ccc(C)cc2)CC1(O)C(F)(F)F (centres undefined)	-10%	-1.7	-0.7%	10%	x	-3%	-3.0
NC(=O)CN1CCN(c2cccc(Cl)c2)CC1	3%[15.4 µM]	0.1	x	13%	-0.2%	3%	-2.0
Cc1ccc(-n2c(Cc3ccccc3)nnc2SCC(=O)NNC(=O)Cc2ccccc2)cc1	1%	-2.1	-1.6%	-5%	0.1%[38.3 µM]	-12%	0.0
